# miR-21 reporter: raises the signal of a miR-21 reporter | HeLa miR-21 FLuc reporter, luciferase, 48 h | Potency, µM (titrated, usually from 38.3 µM), without a hit: top-dose reporter change, positive = more light | 340,000 tested, under 10 active; active = well fitted rising curve with a large enough effect; inconclusive = small, poorly fitted or top-dose-only effect; inactive = no such curve, though single readings can be large or run the other way;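 note: % of control where 0% means no effect; miR-21 action dims this reporter so a rising signal means less miR-21 action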
#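 HeLa cells stably expressing CMV-driven firefly luciferase with a downstream miR-21 binding sequence, endogenously expressing miR-21, were treated with titrations (up to about 40uM final) for 48 hours at 37 degree Celsius. Luciferase luminescence was read after lysis.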
# GLA inh pH 4.5: inhibitors of human alpha-galactosidase A at pH 4.5. activity change, negative = inhibition, % at 105 µM. AID 1467. purified enzyme, 4-MU-alpha-Gal fluorescence, pH 4.5. 230,000 tested, under 10 active; inconclusive = small, poorly fitted or top-dose-only inhibition, or a rising curve; inactive = flat fitted curve, though single readings scatter; no compound was filed as active;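 note: 0% = full activity with enzyme and -100% = basal without enzyme; dose as in the result columns while the protocol names 77 µM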
# Rango dissoc inh: prevents RanGTP from dissociating the Rango-importin beta complex. O95149+P62826. Biochemical FRET Rango-importin beta, RanGTP-induced dissociation. Potency, µM (highest dose often 46.1 µM), without a hit: at the top dose activity change, negative = inhibition. actives 0.071% (n = 340,000). AID 540253; active means falling FRET ratio curve, often poorly fitted, with flat reads before Ran was added; inconclusive means other falling curves, or compound fluorescence or quenching; inactive means flat or rising ratio curve;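 note: potency is the fitted concentration of half-maximal effect; % of control where 0% means no effect; nearly all actives have a fitted effect of over 45% in size; -100% = wells without RanGTP and RCC1; the record marks most hits as doubtful in a second field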
#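 Rango/importin beta premix (0.1/0.25 uM final), PBS + 1 mM DTT + 0.02% Tween-20 + 0.1% BSA; cpd 5 min RT; FRET pre-read; + RanGTP-RCC1 (0.6 uM Ran, 2 mM GTP, 0.2 uM RCC1); 45 min RT; FRET post-read, ex 430, em 486/530 nm.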
# Rango complex inh: prevents formation of the Rango-importin beta complex; Q14974; Rango CFP/YFP FRET sensor + importin beta, 45 min; actives 0.031% (n = 340,000); Potency, µM (titrated, usually from 92.2 µM), inactives show at the highest dose inhibition of complex formation; active = rising FRET ratio curve, often small or poorly fitted; inconclusive = mostly compound fluorescence or quenching in the first reads; inactive = flat curves in all reads;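 note: potency is the fitted concentration of half-maximal effect; 0% = DMSO wells and 100% = buffer wells lacking importin beta; nearly all actives have a fitted effect of over 15% in size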
# Target sequence (Q14974 whole entry, looked up): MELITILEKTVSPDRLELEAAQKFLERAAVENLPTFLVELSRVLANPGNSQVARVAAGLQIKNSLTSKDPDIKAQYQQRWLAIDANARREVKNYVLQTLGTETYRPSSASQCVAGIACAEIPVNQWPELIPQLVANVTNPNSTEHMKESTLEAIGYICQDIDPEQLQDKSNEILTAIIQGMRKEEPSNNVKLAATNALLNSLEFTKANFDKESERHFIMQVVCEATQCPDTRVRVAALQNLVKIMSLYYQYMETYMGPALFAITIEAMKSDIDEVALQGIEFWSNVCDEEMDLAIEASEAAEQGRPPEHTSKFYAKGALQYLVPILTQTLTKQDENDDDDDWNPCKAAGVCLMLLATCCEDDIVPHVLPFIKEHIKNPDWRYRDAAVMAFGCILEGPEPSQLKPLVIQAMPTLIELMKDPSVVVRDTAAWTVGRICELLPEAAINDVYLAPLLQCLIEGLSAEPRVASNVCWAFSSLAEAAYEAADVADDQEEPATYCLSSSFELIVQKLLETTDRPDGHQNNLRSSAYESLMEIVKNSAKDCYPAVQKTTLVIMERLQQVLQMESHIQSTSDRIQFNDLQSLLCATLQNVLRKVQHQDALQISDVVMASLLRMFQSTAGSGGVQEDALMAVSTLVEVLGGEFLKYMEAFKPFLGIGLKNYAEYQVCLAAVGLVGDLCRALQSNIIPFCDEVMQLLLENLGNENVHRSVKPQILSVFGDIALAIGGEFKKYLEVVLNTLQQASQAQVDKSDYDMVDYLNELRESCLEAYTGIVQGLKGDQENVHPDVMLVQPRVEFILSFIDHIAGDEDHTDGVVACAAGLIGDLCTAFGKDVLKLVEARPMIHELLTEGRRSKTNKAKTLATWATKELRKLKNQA
#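 Inhibition scored from the CFP 486 nm/YFP 530 nm FRET ratio 45 min after adding 0.125 microM importin beta to 50 nM Rango biosensor preincubated 5 min with compound (room temperature, PBS with DTT, Tween-20, BSA). No-importin wells as positive control.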
# Active calls of the source: *; ? = inconclusive; / = no result given; [ ] = dose if it differs, or a comment. An excerpt; rates above refer to the full screens.
GLA inh pH 4.5	Rango complex inh	Rango dissoc inh	miR-21 reporter	Molecule
-1	-0.3%	-4%	-8%	Cc1ccc(NC(=O)CCC(=O)NNC(=O)COc2cccc3ccccc23)c(C)c1
-4	0.1%	12%	-13%	Cc1nnc(NNS(=O)(=O)c2ccc(Cl)cc2)[nH]c1=O
9	-5.0%	-21%	3%	COc1ccc(OC)c(S(=O)(=O)Nc2c(C)cccc2C)c1
/	?	?	2%	CC(C)NC(=S)n1cc(C(=O)c2cc(Cl)cc(Cl)c2O)cn1
-3	0.7%	-11%	-27%	CNCc1ccc(OCc2ccccc2)c(OC)c1
7	-2.0%	1%	1%	Cc1ccc2[nH]c(=O)c(-c3noc(CC(C)C)n3)cc2c1
/	-1.4%	1%	/	COc1ccc(C2=CN(Cc3ccccc3)CCC2=O)cc1
-12	0.1%	28%	0%	COc1cc(OC)cc(C(=O)N[C@H](C(=O)OCC(=O)N2CCc3ccccc32)C(C)C)c1
7	?	-17%	-9%	COCCn1cc(C(=O)c2ccccc2OCC(=O)Nc2cc(C)on2)cc(C#N)c1=O
/	-0.7%	7%	-4%	CCOC(=O)C(Cc1ccccc1)NC(=O)CCC(=O)c1ccc(OC)cc1 (stereo unspecified)
-1	-2.2%	-1%	-4%	CCC(=O)NC1(C(F)(F)F)C(=O)Nc2c1c(=O)n(C)c(=O)n2C (stereo unspecified)
2	-7.6%	16%	-29%	N#Cc1nc(COc2ccccc2)oc1N1CCCC1
0	3.0%	-3%	-56%	C/C(=N/NC(=O)c1cccs1)c1ccco1
-10	7.1%	-13%	-2%	O=C(/C=C/c1ccc(F)cc1)NC(=S)N1CCN(Cc2ccccc2)CC1
1	0.6%	4%	-6%	COc1ccc(-n2nnc3c(SCC(=O)c4ccccc4)ncnc32)cc1
-8	-1.9%	0%	0%	O=C(Nc1cccc(Cl)c1)Nc1ccccc1NS(=O)(=O)c1cccs1
?	?	?	-31%	O=c1c(-c2nc3ccccc3s2)cccn1Cc1ccccc1
-2	4.1%	-9%	-27%	CNC(=O)/C(C#N)=C/c1cc(C)n(-c2ccc(N3CCOCC3)cc2)c1C
-2	-2.6%	-10%	1%	CCCN1C(=O)/C(=C\C=C2/C=CN(CC)c3ccccc32)SC1=S
-3	0.8%	17%	1%	O=C(N/C(=C\c1ccc([N+](=O)[O-])cc1)C(=O)N1CCOCC1)c1ccccc1
-9	-0.5%	1%	-5%	CCN(C(=O)CSc1nnc(Nc2ccccc2C)s1)C1CCS(=O)(=O)C1 (stereo unspecified)
-7	?	0%	-13%	O=C(Nc1ccc2nc3n(c(=O)c2c1)CCCC3)c1cccc([N+](=O)[O-])c1
4	4.2%	-4%	3%	Cc1ccc(C(=O)Nn2cnnc2)cc1S(=O)(=O)N1CCOCC1
-11	-0.1%	-1%	-3%	CCCC1(C(=O)OCC)NC(c2ccc(OC)cc2OC)C2C(=O)N(c3ccccc3)C(=O)C21 (stereo unspecified)
/	2.7%	17%	6%	Cc1nc2ccc(C(=O)Nc3ccc4nc[nH]c4c3)cc2[nH]1
/	6.4%	19%	-3%	COc1ccc(N2C(=O)CSC2c2ccccc2)cc1 (stereo unspecified)
0	-3.4%	-1%	-2%	COc1ccc(C(=O)C2CCCN(Cc3cccn3-c3cccnc3)C2)cc1OC (stereo unspecified)
0	2.7%	9%	-15%	Cc1cccc2c1nc(-c1ccccc1)n1cnnc21
0	-2.4%	16%	-3%	CCCC(=O)N1CCN(c2ccc(NC(=O)c3ccc(OCC)c([N+](=O)[O-])c3)cc2)CC1
5	-0.6%	-14%	-4%	CCOC(=O)c1c(NC(=O)CSC(=S)N2CCOCC2)sc(C)c1C
-4	-0.6%	50%	-11%	N#Cc1cn(CCOC(=O)c2cccc(C(F)(F)F)c2)c(=O)[nH]c1=O
10	4.5%	0%	-39%	COc1ccc(/C=N\NC(=O)C2=NNC(=O)C2C)cc1 (stereo unspecified)
-10	3.9%	-16%	-2%	COc1cccc(/C=N/NC(=O)C(=O)NCc2cccnc2)c1OC
-10	?	-17%	-8%	CCc1cc2ccc(C)cc2nc1SCC(=O)c1ccc(NC(C)=O)cc1
5	-3.3%	-2%	-1%	OCC1OC(n2nc3ccccc3n2)C(O)C(O)C1O (stereo unspecified)
-13	0.4%	0%	-56%	COc1ccc(/C=N/OC(=O)Nc2ccccc2)cc1[N+](=O)[O-]
/	-2.6%	-9%	1%	CCC(C)(C)NC(=O)CN(C(=O)CCC(=O)Nc1nccs1)c1cccc(C)c1
-13	-2.1%	8%	-1%	Cc1cc(-n2c(C)cc(C(=O)COc3ccc4ccc(=O)oc4c3)c2C)no1
-19[21.1 µM]	-3.3%	-11%	0%	CC(C)CC(=O)N1CCN(C(=O)c2ccco2)CC1
/	-1.8%	9%	1%	COc1cccc(NC(=O)CSc2ccc3nnc(-c4ccccn4)n3n2)c1
24	1.9%	8%	5%	O=C(Nc1ccc(-c2nc3ccccc3o2)cc1)c1ccc(N2C(=O)C3C4C=CC(C4)C3C2=O)cc1 (stereo unspecified)
-12	?	-28%	-54%	COc1ccc2c(c1)c(/C=N/Nc1ccc(C(=O)O)cc1)c(C)n2C
-13	-4.0%	0%	26%	O=[N+]([O-])c1ccc(NC(=S)NCCc2ccccc2)cc1
-11	-0.8%	-6%	3%	O=c1cnn(-c2ccc(Cl)cc2Cl)c(-c2ccccc2)c1
/	-3.9%	-16%	/	CCCOc1ccc(C(=O)Nc2cc(S(=O)(=O)N3CCOCC3)ccc2N2CCOCC2)cc1
1	-0.5%	-11%	1%	O=C(COC(=O)c1ccc([N+](=O)[O-])s1)Nc1cccc(S(=O)(=O)NC2=NCCCCC2)c1
/	-1.5%	13%	/	COc1ccc(CCNC(=O)c2cccc(S(=O)(=O)N3CCCC3)c2)cc1OC
-18	-1.5%	12%	-2%	Cc1ccc(CSc2nnc([C@@H]3CCCN3C(=O)OC(C)(C)C)o2)cc1
/	-3.3%	7%	/	O=C1NC[C@H](Cc2ccccc2)N(CC2CCN(CCCCc3ccccc3)CC2)C1=O
-9	4.1%	-5%	-1%	CN(Cc1cn(C)nc1-c1ccccc1F)C1CCOC1 (stereo unspecified)

# The results go on:
GLA inh pH 4.5	Rango complex inh	Rango dissoc inh	miR-21 reporter	Molecule
3	-4.1%	16%	-2%	CCC(=O)Nn1cnc2c(c1=O)C1(CCCCC1)Cc1ccccc1-2
/	-0.1%	2%	/	Cc1ccc2cccc(OCC(=O)NCCC3=CCCCC3)c2n1
-3	-0.8%	4%	-7%	CCC(c1ccccc1)c1nnc(NC(=O)c2ccco2)s1 (stereo unspecified)
-17	1.0%	0%	-1%	Cc1ccc(NC(=O)CCC(=O)NNC(=O)NC2CCCCC2)c(C)c1
-2	5.8%	1%	6%	COc1ccc(CCNC(=O)COC(=O)/C=C/c2cc(OC)c(OC)c(OC)c2)cc1OC
3	-2.4%	-1%	-1%	Cc1ccccc1OCC(=O)NNC(=O)C1CCCCC1C(=O)O (stereo unspecified)
/	?	?	/	O=C(NCc1ccc(F)cc1)c1cccc2c1C(=O)c1ccc(N3CCC(Cc4ccccc4)CC3)cc1S2(=O)=O
-3	/	/	-11%	Cc1ccc(CN2C(=O)C3CCCN3c3ccc(C#N)cc32)cc1 (stereo unspecified)
/	-0.4%	-18%	-3%	COc1ccc(C)c(NC(=O)NCCc2cnc[nH]2)c1
-1	3.5%	5%	-6%	O=c1nc(N2CCCC2)nc(Nc2ccccc2)[nH]1
/	-0.2%	19%	27%	O=C(NCC1CCN(Cc2cccc(Cl)c2)CC1)C1CCCN(c2ncnc3c2nc2n3CCCCC2)C1 (stereo unspecified)
9	?	?	-3%	CCOC(=O)C1=C(C)NC2=C(C(=O)C(C(=O)OCC)C(c3ccccc3OC)C2)C1c1ccccn1 (stereo unspecified)
3	-1.5%	8%	-7%	C=CCn1c(=NC(=O)c2cccs2)sc2cccc(OC)c21
10	-0.4%	12%	0%	COc1ccc(NS(=O)(=O)c2ccc(O)c(NC(=O)c3ccc(S(=O)(=O)N4CCCCCC4)cc3)c2)cc1
-12	0.0%	-11%	-33%	Cc1nc2cc(NC(=O)NC(C)(C)C)ccc2n1C
0	/	/	9%	Cn1c(=O)oc2cc(S(=O)(=O)N3CCCC(C(=O)N4CC=C(c5ccccc5)CC4)C3)ccc21 (stereo unspecified)
9	-0.4%	-1%	0%	CCS(=O)(=O)N1CCN(S(=O)(=O)c2ccccc2[N+](=O)[O-])CC1
-1	6.8%	5%	-4%	CCn1c(SCC(=O)C(C)(C)C)nnc1-c1ccccn1
-12	0.6%	6%	5%	Cn1cccc1Cc1nnc(SCC(=O)N2CCc3ccccc32)n1CCc1ccccc1
3	-6.2%	-21%	1%	COc1ccc(CNC(=O)CCCn2nc(C)c([N+](=O)[O-])c2C)cc1OC
4	0.1%	7%	-7%	COCCCNC(=S)N1CCN(Cc2ccc3c(c2)OCO3)CC1
12	-5.0%	6%	-1%	COCC(=O)N/N=C(\C)CC(=O)Nc1ccccc1C(N)=O
-7	0.5%	-7%	-25%	CCOC(=O)c1nnn(-c2ccccc2)c1C
/	0.2%	0%	/	CCN(CC)S(=O)(=O)c1ccc(C)c(NC(=O)CNc2cccc(S(=O)(=O)N3CCOCC3)c2)c1
5	0.2%	0%	-7%	COc1cccc(Nc2nnc(SCC(=O)N3CC(=O)Nc4ccccc43)s2)c1

# A few values from the results shown:
# Under miR-21 reporter, `Cc1nc2cc(NC(=O)NC(C)(C)C)ccc2n1C` shows -33%
# Under Rango dissoc inh, `COc1ccc(CNC(=O)CCCn2nc(C)c([N+](=O)[O-])c2C)cc1OC` shows -21%
# Under miR-21 reporter, `COc1cccc(Nc2nnc(SCC(=O)N3CC(=O)Nc4ccccc43)s2)c1` shows -7%
# Under Rango complex inh, `Cc1ccc2cccc(OCC(=O)NCCC3=CCCCC3)c2n1` shows -0.1%
# Under Rango dissoc inh, `COc1ccc(C)c(NC(=O)NCCc2cnc[nH]2)c1` shows -18%

# Next structures follow.
GLA inh pH 4.5	Rango complex inh	Rango dissoc inh	miR-21 reporter	Molecule
/	3.0%	0%	-34%	Cc1ccc2[nH]c(CNC(=O)c3ccccc3F)cc2c1
2	?	1%	-2%	COc1ccc(C)cc1NC(=O)c1cc2ccccc2cc1OCC(=O)NCc1ccco1
15	-0.4%	-4%	-18%	Cc1cc(=O)oc2cc(NC(=O)C3CCCC3)ccc12
-3	-4.5%	25%	-60%	CCNc1nc(-c2cc3ccccc3o2)cs1
3	0.7%	1%	-9%	COc1ccc(-c2noc(-c3ccccc3C(=O)Nc3cccnc3)n2)cc1OC
-5	1.9%	-11%	-5%	C/C(=N\OCC(=O)Nc1cc(C)cc(C)c1)c1ccc2c(c1)OCCO2
-12	-1.1%	2%	-22%	CCCC(=O)Nc1cccc(-c2nc3ccccc3o2)c1
/	-0.3%	8%	/	COP(=O)(OC)c1ccc(NCc2cc(O)ccc2O)cc1
-3	-1.5%	-3%	17%	Cc1nn(C)c(C)c1CN(Cc1nc(-c2ccc(F)cc2F)oc1C)C1CC1
/	?	?	/	O=[N+]([O-])c1ccc(NN=Cc2ccccc2)nc1
/	-2.5%	9%	1%	CN(CC(=O)Nc1cccnc1)S(=O)(=O)c1ccc(Br)cc1
/	-0.4%	-5%	/	CC1C(=O)N2CCCc3cc(NC(=O)c4ccccc4C(F)(F)F)cc1c32 (stereo unspecified)
/	-0.7%	15%	/	O=[N+]([O-])c1ccc(C[n+]2ccccc2)cc1
0	0.2%	-15%	2%	COC(=O)C1=C(C)NC(C)=C(C(=O)OC)C1c1ccc(-c2cc(Cl)ccc2Cl)o1
-8	0.9%	7%	-28%	Cc1cc(C(=O)Nc2nnc(-c3ccccc3)s2)no1
-5	1.6%	24%	0%	N#CC1=C(N)Oc2n[nH]c(-c3ccccn3)c2C1c1c(F)cccc1Cl (stereo unspecified)

# Shown tab-delimited: part of the list above.
molecule	GLA inh pH 4.5	Rango complex inh	Rango dissoc inh	miR-21 reporter
CN(CC(=O)Nc1cccnc1)S(=O)(=O)c1ccc(Br)cc1	/	-2.5%	9%	1%
CC1C(=O)N2CCCc3cc(NC(=O)c4ccccc4C(F)(F)F)cc1c32 (stereo unspecified)	/	-0.4%	-5%	/

# Assay outcomes (PubChem BioAssay)
